Lassa entry inh = qHTS for Inhibitors of binding or entry into cells for Lassa Virus; AID 540256, 2011; hit rate 1.2% among 300,000; Potency, µM (doses to about 37.9 µM), for the others: at the highest dose activity change, negative = inhibition, usual class: inhibitors; Lassa virus pseudotype entry inhibition, cell reporter; control for the full effect not named in the record; active means well fitted inhibition curve with a large enough effect; inconclusive means small, poorly fitted or top-dose-only effect, or effect the other way; inactive means flat fitted curve, though single readings scatter; tested in HEK293 cells; also: % is scaled to controls: 0 for no effect and ±100 for the full control effect; nearly all actives have a fitted effect of over 50% in size; luciferase read-out
2A StopGo = High Throughput Screening for Foot and Mouth Disease Virus Antivirals. AID 1159524, 2015. hit rate 1.2% among 410,000. Potency, µM (titrated, usually from 57.9 µM), inactives show at the highest dose signal change, negative = less light. human cells with a luciferase reporter of 2A StopGo recoding; control for the full effect not named in the record; active = well fitted falling curve with a large enough effect; inconclusive = small, poorly fitted or top-dose-only effect; inactive = no such curve, though single readings can be large or run the other way; tested in HEK293T cells; also: % is scaled to controls: 0 for no effect and ±100 for the full control effect; nearly all actives have a fitted effect of over 45% in size; luciferase light after 4 h
RE007 growth inh = qHTS Assay for Inhibitors of the HIV-1 protein Vpr | S. pombe RE007 Vpr strain, BacTiter-Glo ATP luminescence, 24 h; control for the full effect not named in the record | Potency, µM (top dose mostly 92.2 µM), for inactives: top-dose activity change, negative = less growth | hit rate 0.21% among 360,000; active = well fitted falling curve with a large enough effect; inconclusive = small, poorly fitted or top-dose-only effect; inactive = no such curve, though single readings can be large or run the other way;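 also: % is scaled to controls: 0 for no effect and ±100 for the full control effect; nearly all actives have a fitted effect of over 50% in size; the assay follows cell death caused by Vpr and the record does not say whether a fall means rescue or toxicity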
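Fission yeast RE007 carrying one integrated HIV-1 vpr copy, seeded at OD 0.01 in PMG+AL medium with 23 nL pinned compound. Grown 24 h at 30 degrees; viability read by BacTiter-Glo luminescence after 5 min.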
Cruzain Triton = qHTS Assay for Promiscuous and Specific Inhibitors of Cruzain (with detergent); Cruzipain (Trypanosoma cruzi), P25779; AID 1478, 2009; hit rate 0.43% among 200,000; purified cruzain, Z-FR-AMC fluorescence, 0.01% Triton; Potency, µM, for inactives: max response, negative = inhibition, actives largely listed as inhibitors; active = well fitted curve in the direction sought with a large enough effect; inconclusive = small, poorly fitted or top-dose-only effect, or another doubt; inactive = no such curve, though single readings can be large; an effect the other way counts as inactive or inconclusive;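 also: plate controls were neutral wells for no effect and buffer without enzyme for full effect; nearly all actives have a fitted effect of over 40% in size; top concentration of the series not given in the record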
Target sequence (P25779 123-467 limits assumed): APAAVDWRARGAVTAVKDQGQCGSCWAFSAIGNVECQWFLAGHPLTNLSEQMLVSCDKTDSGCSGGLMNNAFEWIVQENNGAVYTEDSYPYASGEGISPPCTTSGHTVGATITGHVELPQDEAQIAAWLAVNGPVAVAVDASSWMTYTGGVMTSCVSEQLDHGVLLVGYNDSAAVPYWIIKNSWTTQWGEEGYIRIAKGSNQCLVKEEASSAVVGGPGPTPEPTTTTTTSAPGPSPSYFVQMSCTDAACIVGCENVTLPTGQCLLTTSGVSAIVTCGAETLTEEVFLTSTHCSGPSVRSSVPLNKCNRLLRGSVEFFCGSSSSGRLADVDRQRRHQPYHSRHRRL
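Cruzain (1.5 nM) preincubated 15 min at RT with compound in 100 mM sodium acetate pH 5.5, 5 mM DTT, 0.01% Triton X-100. Reaction started with 2 uM Z-FR-AMC; AMC fluorescence (ex 360/em 450 nm) change over 60 s gave rate.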
SARS PLpro yeast = qHTS of Yeast-based Assay for SARS-CoV PLP; hit rate 0.19% among 330,000; Potency, µM (series often up to 32.9 µM), inactives show top-dose activity, positive = growth rescue; AID 485353, 2010; S. cerevisiae expressing SARS-CoV PLpro, growth rescue; control for the full effect not named in the record; also: 0% is about no effect; nearly all actives have a fitted effect of over 55% in size; growth read by luminescence after 48 h
NS1 function inh = qHTS Assay for Inhibitors of Influenza NS1 Protein Function. S. cerevisiae slowed by influenza A NS1, growth recovery by OD600. Potency, µM (doses to about 46.1 µM), for inactives: at the highest dose activity, positive = more growth. hit rate 0.4% among 270,000; also: actives are rising curves; nearly all actives have a fitted effect of over 50% in size
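Read-out: OD600 growth recovery of NS1-expressing budding yeast. Cells grown overnight at 30C in -URA glucose medium, washed, resuspended and diluted 1:100 in 2% galactose assay medium, pH 6.0. Same strain lacking NS1 served as positive control.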
MARV entry inh = qHTS for inhibitors of binding or entry into cells for Marburg Virus | AID 540276, 2011 | hit rate 1.8% among 300,000 | Marburg virus pseudotyped entry inhibition, cell reporter; control for the full effect not named in the record; about a third of the inactives were read at about 46 µM | Potency, µM (doses to about 37.8 µM), for inactives: top-dose activity change, negative = inhibition, usual class: inhibitors; active = well fitted inhibition curve with a large enough effect; inconclusive = small, poorly fitted or top-dose-only effect, or effect the other way; inactive = flat fitted curve, though single readings scatter; tested in HEK293 cells; about a fifth of its hits are not listed in these tables; also: % is scaled to controls: 0 for no effect and ±100 for the full control effect; luciferase read-out
Cruzain inh noDet = qHTS Assay for Promiscuous and Specific Inhibitors of Cruzain (without detergent); AID 1476, 2009; purified cruzain, Z-FR-AMC fluorescence, no detergent; Potency, µM, without a hit: max response, negative = inhibition, actives largely listed as inhibitors; hit rate 2.3% among 200,000; Cruzipain (Trypanosoma cruzi), P25779; active = well fitted curve in the direction sought with a large enough effect; inconclusive = small, poorly fitted or top-dose-only effect, or another doubt; inactive = no such curve, though single readings can be large; an effect the other way counts as inactive or inconclusive;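 also: plate controls were enzyme without inhibitor for no effect and buffer without enzyme for full effect; nearly all actives have a fitted effect of over 40% in size; top concentration of the series not given in the record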
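Detergent-free condition (0.00005% Triton X-100) in acetate buffer pH 5.5 with DTT. 1.5 nM enzyme and compound were pre-mixed 15 min, then 2 uM Z-FR-AMC substrate added; reaction progress from fluorescence change between first and third reads (60 s).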
* marks the source's active call; other numbers are inactive results; & = joins results of further samples; [ ] = dose if it differs, or a comment. Unless noted, calls follow the shape of the dose curve; as a rule, active means well fitted rising curve with a large enough effect; inconclusive means small, poorly fitted or top-dose-only effect; inactive means no such curve, though single readings can be large or run the other way. Potency is read from the fitted curve at half-maximal effect.

What do the screens show for `CCN(CC(=O)Nc1c(F)cccc1F)C(=O)C1CCN(c2ncnc3sc(C)c(C)c23)CC1`?
Lassa entry inh: inconclusive; 2A StopGo: inconclusive; RE007 growth inh: 16%; SARS PLpro yeast: 1%; MARV entry inh: inconclusive

What do the screens show for `O=C(NCc1ccccc1Cl)c1cc([N+](=O)[O-])ccc1Cl`?
2A StopGo: -18%; RE007 growth inh: -3%; SARS PLpro yeast: -1%; NS1 function inh: 7%

What do the screens show for `COc1ccccc1NS(=O)(=O)c1ccc(C)c(C(=O)N2CCN(c3ccc(O)cc3)CC2)c1`?
Lassa entry inh: -18%; 2A StopGo: 5%; RE007 growth inh: 12%; SARS PLpro yeast: -2%; MARV entry inh: inconclusive

Results for Cc1ccc(C)c(NC(=O)CN2C(=O)CSc3nc(C)cc(C)c32)c1 ?
Lassa entry inh: 17%[46.1 µM]; 2A StopGo: -12%; Cruzain Triton: 0.2%; MARV entry inh: -16%[46.1 µM]; Cruzain inh noDet: 11%

What do the screens show for `CCc1nc(SCC(=O)NCc2ccco2)c2c(=O)n(C)c(=O)n(C)c2n1`?
2A StopGo: -19%; RE007 growth inh: 1%; Cruzain Triton: 3.6%; SARS PLpro yeast: -1%; NS1 function inh: -18%; Cruzain inh noDet: -10%

How did Cc1coc2c(C)c3oc(=O)c(CC(=O)NCc4ccccc4)c(C)c3cc12 do in these assays?
Lassa entry inh: -8%[46.1 µM]; 2A StopGo: 8%; Cruzain Triton: 0.0%; MARV entry inh: -9%[46.1 µM]; Cruzain inh noDet: -8%

Results for O=c1[nH]c(=O)c2[nH]c(=S)[nH]c2[nH]1 ?
Lassa entry inh: -14%[46.1 µM]; 2A StopGo: -8%; RE007 growth inh: 1%; MARV entry inh: -10%[46.1 µM]

Results for Cc1csc2ncc(C(=O)NCCc3ccccc3)c(=O)n12 ?
2A StopGo: 3%; RE007 growth inh: -4%; Cruzain Triton: -10%; SARS PLpro yeast: -5%; NS1 function inh: -3%; Cruzain inh noDet: -5%

Results for O=C(N/N=C/c1ccc(Br)s1)c1ccccn1 ?
Lassa entry inh: inconclusive; 2A StopGo: 9%; RE007 growth inh: -20%; Cruzain Triton: -8.7%; SARS PLpro yeast: -11%; NS1 function inh: -3%; MARV entry inh: inconclusive; Cruzain inh noDet: -5%

How did CC12CN(C(=O)c3ccccc3)C3(C#N)CC1CCC23C (stereo not drawn) do in these assays?
Lassa entry inh: 2%; 2A StopGo: -8%; RE007 growth inh: 0%; Cruzain Triton: 11%; SARS PLpro yeast: -3%; NS1 function inh: -1%; MARV entry inh: 13%; Cruzain inh noDet: 0%

Results for CCCCn1c(SCc2cc(=O)[nH]c3ccccc23)nc2c1c(=O)n(C)c(=O)n2C ?
Cruzain Triton: 0.0%; SARS PLpro yeast: 4%; NS1 function inh: -4%; MARV entry inh: 3%; Cruzain inh noDet: -12%

What do the screens show for `Cc1sc2ncnc(SC(C)C(=O)N3c4ccccc4Sc4ccccc43)c2c1C` (stereo not drawn)?
Lassa entry inh: inconclusive; 2A StopGo: -25%; RE007 growth inh: -14%; Cruzain Triton: -1.9%; SARS PLpro yeast: -25%; NS1 function inh: -3%; MARV entry inh: 11µM*; Cruzain inh noDet: inconclusive

How did O=C(C1CCCN(S(=O)(=O)c2cccc3nonc23)C1)N1CCC(Cc2ccccc2)CC1 (stereo not drawn) do in these assays?
Lassa entry inh: inconclusive; 2A StopGo: -26%; RE007 growth inh: 5%; Cruzain Triton: -4.1%; NS1 function inh: 10µM*; MARV entry inh: 0%&0%[46.1 µM]; Cruzain inh noDet: 5%

How did CCOc1ccc(N2C(=O)CS(=O)(=O)C23C(=O)N(Cc2cccc(Cl)c2)c2ccccc23)cc1 (stereo not drawn) do in these assays?
Lassa entry inh: -9%[46.1 µM]; 2A StopGo: 0%; Cruzain Triton: -3.0%; Cruzain inh noDet: 10µM*

What do the screens show for `Nc1nonc1-n1nnc(C(=O)N/N=C/c2ccc3c(c2)OCO3)c1CSc1ccccc1`?
2A StopGo: 16%; RE007 growth inh: 9%; SARS PLpro yeast: 2%; NS1 function inh: -2%

What do the screens show for `O=C(NNC(=O)c1cnccn1)c1ccc(Cl)cc1`?
Lassa entry inh: inconclusive; 2A StopGo: 7%; RE007 growth inh: -2%; SARS PLpro yeast: 0%; NS1 function inh: -8%; MARV entry inh: inconclusive

What do the screens show for `CC1CC(CN)CC(CO)C1` (stereo not drawn)?
Lassa entry inh: 13%; 2A StopGo: -2%; RE007 growth inh: 14%; SARS PLpro yeast: 0%; NS1 function inh: 2%; MARV entry inh: 19%

Results for COc1ccccc1NC(=O)c1ccccc1NS(=O)(=O)N1CCCC1 ?
Lassa entry inh: -1%; 2A StopGo: -11%; RE007 growth inh: -21%; Cruzain Triton: -4.2%; SARS PLpro yeast: 4%; NS1 function inh: -36%; MARV entry inh: 2%; Cruzain inh noDet: -7%

Results for Cn1cc(Cl)c(C(=O)Nc2nc3ccccc3s2)n1 ?
Lassa entry inh: inconclusive; RE007 growth inh: -29%; Cruzain Triton: 1.9%; SARS PLpro yeast: -15%; NS1 function inh: 6%; MARV entry inh: 8.2µM*; Cruzain inh noDet: -11%

How did O=C(NCC(=O)N(c1ccccc1)C(C(=O)NC1CCCC1)c1cccnc1)c1cccs1 (stereo not drawn) do in these assays?
Lassa entry inh: 26%; RE007 growth inh: -1%; Cruzain Triton: 1.5%; SARS PLpro yeast: 2%; NS1 function inh: 8%; MARV entry inh: 4%; Cruzain inh noDet: -15%

What do the screens show for `COc1cc(C(C(=O)NC(C)(C)C)N(C(=O)CNC(=O)c2cccs2)c2ccc(C(C)C)cc2)cc(OC)c1OC` (stereo not drawn)?
Lassa entry inh: 7%; RE007 growth inh: 5%; Cruzain Triton: -0.3%; SARS PLpro yeast: 0%; NS1 function inh: 6%; MARV entry inh: -15%; Cruzain inh noDet: inconclusive

How did Cc1ccccc1CCN(C(=O)Cn1nnc2ccccc21)C(C(=O)NCC1CCCO1)c1nc2ccccc2n1C (stereo not drawn) do in these assays?
Lassa entry inh: 3%; 2A StopGo: -13%; RE007 growth inh: -7%; Cruzain Triton: -2.3%; SARS PLpro yeast: 5%; NS1 function inh: 10%; MARV entry inh: inconclusive; Cruzain inh noDet: inconclusive

What do the screens show for `C=CCN(C(=O)CNS(=O)(=O)c1ccccc1)C(C(=O)NCCOC)c1ccncc1` (stereo not drawn)?
Lassa entry inh: inconclusive; 2A StopGo: -15%; RE007 growth inh: 17%; Cruzain Triton: -3.8%; SARS PLpro yeast: -6%; NS1 function inh: -8%; MARV entry inh: 7%&1%; Cruzain inh noDet: -7%

Results for COc1ccc(-c2cc(C(F)(F)F)nc(SCC(=O)Nc3sc4c(c3C#N)CCC4)n2)cc1 ?
Lassa entry inh: inconclusive; 2A StopGo: 19%; RE007 growth inh: 11%; Cruzain Triton: -11%; SARS PLpro yeast: 5%; NS1 function inh: 13%; MARV entry inh: inconclusive; Cruzain inh noDet: 13µM*

How did Cc1cccc(C2CC(c3ccccc3)Nc3nc(N)nn32)c1 (stereo not drawn) do in these assays?
2A StopGo: -16%; RE007 growth inh: 9%; Cruzain Triton: -1.8%; SARS PLpro yeast: inconclusive; NS1 function inh: 9%; MARV entry inh: 1%; Cruzain inh noDet: 1%

What do the screens show for `Cn1c(O)c(C2=NN(C(=O)CCl)C(c3ccccc3)C2)c(=O)n(C)c1=O` (stereo not drawn)?
2A StopGo: -12%; RE007 growth inh: 5%; SARS PLpro yeast: 5%; NS1 function inh: 4%

How did CCC1(c2ccc(F)cc2)NC(=O)N(CC(=O)NC2CC2)C1=O (stereo not drawn) do in these assays?
Lassa entry inh: inconclusive; 2A StopGo: -21%; RE007 growth inh: -11%; SARS PLpro yeast: -10%; MARV entry inh: -3%

What do the screens show for `O=C(COc1ccccc1Cl)Nc1ccc2c(c1)OCCO2`?
Lassa entry inh: -13%; 2A StopGo: -27%; RE007 growth inh: inconclusive; Cruzain Triton: -5.8%; SARS PLpro yeast: -6%; NS1 function inh: -60%; MARV entry inh: inconclusive; Cruzain inh noDet: -7%

Results for O=C(NNC(=O)c1ccc(NC(=O)c2ccccc2)cc1)Nc1ccccc1 ?
2A StopGo: -6%; RE007 growth inh: 8%; SARS PLpro yeast: 0%; NS1 function inh: 2%

Results for CC(C)c1ccc(NC2CCCN(C(=O)c3ccccc3-c3ncc[nH]3)C2)cc1 (stereo not drawn) ?
2A StopGo: -21%; RE007 growth inh: 9%; SARS PLpro yeast: 1%; NS1 function inh: -7%

What do the screens show for `COc1ccc(CCC(=O)NCCS(=O)(=O)N2CCN(c3ccccc3OC)CC2)cc1`?
2A StopGo: -25%; RE007 growth inh: 19%; SARS PLpro yeast: 8%; NS1 function inh: -19%

How did COc1cc(-c2n[nH]c(=S)n2C(C)c2ccccc2)cc(OC)c1OC (stereo not drawn) do in these assays?
2A StopGo: 0%; RE007 growth inh: 9%; SARS PLpro yeast: 3%; NS1 function inh: 24%

Results for COc1cc(S(=O)(=O)N(Cc2ccco2)C2CCCC2)ccc1-n1cnnn1 ?
Lassa entry inh: inconclusive; 2A StopGo: 18%; RE007 growth inh: 12%; Cruzain Triton: -1.5%; SARS PLpro yeast: -1%; NS1 function inh: -7%; MARV entry inh: -5%&-6%; Cruzain inh noDet: 7%

What do the screens show for `O=C(Nc1ccccc1C(F)(F)F)C1CCN(S(=O)(=O)Cc2ccccc2)CC1`?
Lassa entry inh: -9%[46.1 µM]; 2A StopGo: -11%; Cruzain Triton: -7.6%; MARV entry inh: -15%[46.1 µM]; Cruzain inh noDet: -3%
